Screening results deposited in PubChem BioAssay by Broad Institute.
DUX4 txn inh: DUX4-mediated transcription inhibition; 293T-iDUX4 ZSCAN4-Gaussia luciferase reporter, 24 h; stronger effect = lower value; activity change, negative = inhibition, % (test concentration not listed); hit rate 0.8% among 37,000; AID 1224904;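 active = -10% or lower and over 25 points stronger than a control reporter; inconclusive = -10% or lower with a smaller gap; inactive = above -10%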;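 note: 0% = median of neutral control wells and -100% = median of positive control wells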
DUX4 txn inh difference: also measured in DUX4 txn inh; calls as there; Gaussia minus Italica difference, %; measured here: selective DUX4 reporter inhibition;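 worked out from the two reporters; negative = selective loss of the DUX4 reporter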
DUX4 txn inh control: further read-out of DUX4 txn inh, marked with its call; activity change, negative = inhibition, %; measured here: Italica tet-on control reporter;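 0 = neutral control and -100 = positive control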
Starred values were filed as active, the others as inactive; ? = inconclusive; . = no result given; & = joins results of further samples. These rows are one share of the data; count on the stated rates, not on these rows.

SMILES	DUX4 txn inh	DUX4 txn inh difference	DUX4 txn inh control
O=C(Cc1ccncc1)Nc1ccc2c(c1)[C@H]1C[C@@H](CC(=O)NC3CCCCC3)O[C@H](CO)[C@H]1O2	-2	-6	4.3
C[C@H](CO)N1C[C@H](C)[C@H](CN(C)C(=O)Cc2ccccc2)OCCCC[C@H](C)Oc2ccc(N(C)C)cc2C1=O	-1	-2	1.4
Cc1cccc(S(=O)(=O)N2C[C@H]3[C@@H](c4ccccc42)[C@H](CO)N3Cc2ccccn2)c1	-3	2	-4.7
CC(C)OC(=O)N(C)C[C@@H]1OCc2ccccc2-c2c(n(C)c3ccccc23)C(=O)N([C@@H](C)CO)C[C@H]1C	-3	6	-8.8
CC(=O)N1C[C@@H]2[C@H](c3ccccc31)[C@H](CO)N2C(=O)Nc1ccc(F)cc1	-2	4	-6.9
C[C@@H]1CN([C@H](C)CO)C(=O)c2cc(NC(=O)C3CCCCC3)ccc2O[C@@H]1CN(C)C(=O)Nc1ccc(C(F)(F)F)cc1	2	2	0.1
COc1ccc2c3c([nH]c2c1)[C@H](CO)N(CC1CC1)CC31CCN(Cc2ccccc2F)CC1	?	.	.
COc1ccccc1C(=O)Nc1ccc2c(c1)C(=O)N(C)[C@H]1CC[C@H](CC(=O)NCCc3ccncc3)O[C@H]1CO2	0	-2	2.4
COc1cccc(S(=O)(=O)Nc2ccc3c(c2)C(=O)N(C)[C@H]2CC[C@H](CC(=O)NCC4CCCCC4)O[C@@H]2CO3)c1	0	0	0.6
OC[C@@H]1[C@H](c2ccc(C#Cc3ccccc3)cc2)[C@@H]2CN(CC3CCOCC3)CCCCN12	8	-4	12
C[C@H]1CN([C@@H](C)CO)C(=O)c2cc(C3=CCCC3)cnc2O[C@H]1CN(C)Cc1cccc(F)c1	3	-2	4.4
O=C(C[C@H]1CC[C@H]2[C@@H](COC[C@@H](O)CN2C(=O)c2ccccc2F)O1)N1CCOCC1	8	5	3.1
CCC(=O)N1[C@H](CO)[C@H](c2ccc(-c3cccnc3)cc2)[C@H]1CN(CC)C(C)=O	0	-1	0.7
O=C(C[C@@H]1C=C[C@@H](NC(=O)NC2CCCCC2)[C@@H](CO)O1)NCc1ccc(F)cc1	-5	-5	0.7
COCCNC(=O)c1cc2c(c(-c3cccc(-c4cccc(OC)c4)c3)n1)[C@@H](CCO)N(S(=O)C(C)(C)C)C2 (some centres not stated)	1	1	0.6
CCC(=O)N1CC2(C1)[C@@H](c1ccccc1)[C@@H](CO)N2S(=O)(=O)Cc1ccccc1	1	-1	2.4
C[C@@H]1CCCCO[C@@H](CN(C)C(=O)c2ccncc2)[C@H](C)CN([C@H](C)CO)C(=O)c2cc(NS(=O)(=O)c3cccs3)ccc2O1	2	-6	7.6
COc1ccccc1CNC(=O)C[C@@H]1C=C[C@H](NC(=O)CC2CC2)[C@@H](CO)O1	-2	-6	3.3
COc1cccc(C#Cc2ccc3c(c2)O[C@@H](CN(C)C(=O)c2ccccn2)[C@@H](C)CN([C@@H](C)CO)S3(=O)=O)c1	6	9	-2.4
CCCNC(=O)N1CC2(CN(C(=O)c3cnccn3)C2)c2c([nH]c3cc(OC)ccc23)[C@@H]1CO	4	-5	9.7
COc1ccc(NC(=O)N(C)C[C@@H]2Oc3ccc(N(C)C)cc3C(=O)N([C@H](C)CO)C[C@@H]2C)cc1	4	8	-3.9
COc1ccc(CNC(=O)C[C@H]2C[C@@H]3c4cc(NC(=O)CN(C)C)ccc4O[C@@H]3[C@H](CO)O2)cc1	1	2	-1.4
CN1CCN(C(=O)C[C@H]2CC[C@@H]3[C@@H](COc4ccc(NC(=O)c5cccs5)cc4C(=O)N3C)O2)CC1	-2	-3	1.1
C[C@@H]1CN([C@@H](C)CO)C(=O)CCCn2cc(nn2)CO[C@H]1CN(C)C(=O)Nc1ccc(-c2cccs2)cc1	-1	0	-0.8
O=S(=O)(Cc1ccccc1)N1C[C@@H]2N[C@H](C1)C2c1ccc(-c2ccccc2)cc1 (some centres not stated)	?	.	.

Sorted by heavy-atom count (highest first): some entries from above.
SMILES	DUX4 txn inh	DUX4 txn inh difference	DUX4 txn inh control
C[C@@H]1CCCCO[C@@H](CN(C)C(=O)c2ccncc2)[C@H](C)CN([C@H](C)CO)C(=O)c2cc(NS(=O)(=O)c3cccs3)ccc2O1	2	-6	7.6
COc1ccccc1C(=O)Nc1ccc2c(c1)C(=O)N(C)[C@H]1CC[C@H](CC(=O)NCCc3ccncc3)O[C@H]1CO2	0	-2	2.4
C[C@@H]1CN([C@@H](C)CO)C(=O)CCCn2cc(nn2)CO[C@H]1CN(C)C(=O)Nc1ccc(-c2cccs2)cc1	-1	0	-0.8
CN1CCN(C(=O)C[C@H]2CC[C@@H]3[C@@H](COc4ccc(NC(=O)c5cccs5)cc4C(=O)N3C)O2)CC1	-2	-3	1.1
COc1ccc2c3c([nH]c2c1)[C@H](CO)N(CC1CC1)CC31CCN(Cc2ccccc2F)CC1	?	.	.
O=C(C[C@@H]1C=C[C@@H](NC(=O)NC2CCCCC2)[C@@H](CO)O1)NCc1ccc(F)cc1	-5	-5	0.7
CCC(=O)N1CC2(C1)[C@@H](c1ccccc1)[C@@H](CO)N2S(=O)(=O)Cc1ccccc1	1	-1	2.4

(cont.)
SMILES	DUX4 txn inh	DUX4 txn inh difference	DUX4 txn inh control
COc1cccc(S(=O)(=O)Nc2ccc3c(c2)[C@@H]2C[C@H](CC(=O)NC4CCCCC4)O[C@@H](CO)[C@@H]2O3)c1	-10	4	-14
COc1ccccc1CN(C)C[C@@H]1OCc2cn(nn2)CCCC(=O)N([C@@H](C)CO)C[C@H]1C	2	1	1.0
C[C@@H]1CN([C@@H](C)CO)C(=O)c2cc(NC(=O)Nc3ccc4c(c3)OCO4)ccc2O[C@H]1CN(C)C	3	0	2.6
CN(C)C(=O)c1cccc(-c2ccc([C@H]3[C@@H](CO)N4CCCCN(Cc5cccnc5)C[C@@H]34)cc2)c1	31	23	7.9
O=C(O)C[C@H]1C[C@H]2c3cc(NC(=O)Nc4ccc(C(F)(F)F)cc4)ccc3O[C@H]2[C@@H](CO)O1	3	3	-0.1
N#Cc1ccc(-c2ccc(C3[C@H]4CNC[C@@H]3N4S(=O)(=O)c3ccccc3F)cc2)cc1 (some centres not stated)	?	.	.
CO[C@@H]1CN(C)C(=O)c2ccc(NS(=O)(=O)c3ccc(C)cc3)cc2OC[C@H](C)N(Cc2nccs2)C[C@H]1C	-1	-1	0.1
COc1ccc(S(=O)(=O)Nc2ccc3c(c2)C(=O)N([C@H](C)CO)C[C@@H](C)[C@H](CN(C)C(=O)CCC(F)(F)F)OCCCC[C@@H](C)O3)cc1	8	8	0.0
CN1c2ccc(-c3ccccc3)cc2[C@H]2[C@H](CCN2C(=O)NC2CCCCC2)[C@@H]1CO	?	.	.
COc1ccc(S(=O)(=O)Nc2ccc3c(c2)C(=O)N([C@@H](C)CO)C[C@@H](C)[C@H](CN(C)Cc2ccncc2)O3)cc1	2	4	-1.1
Cc1ccc(S(=O)(=O)N2C[C@H](O)COC[C@H]3O[C@H](CC(=O)N[C@@H]4CCN(Cc5ccccc5)C4)CC[C@@H]32)cc1	-3	-1	-2.5
CO[C@@H]1CN(C)C(=O)c2ccc(NC(=O)Nc3ccc4c(c3)OCO4)cc2OC[C@@H](C)NC[C@@H]1C	?	.	.
COc1ccc(NC(=O)N2[C@@H]3CNC[C@H]2C3c2ccc(-c3ccccc3C)cc2)cc1 (some centres not stated)	11&24	4&20	6.8&4.6
COCC(=O)N1C[C@@H]2[C@H](c3ccccc31)[C@@H](CO)N2C(=O)C1CCOCC1	0	0	-0.4
CCC(=O)NC[C@H]1[C@H](c2ccc(-c3cccc(F)c3)cc2)[C@@H](CO)N1C(=O)CC	-1	-3	2.2
O=C(C[C@H]1C[C@H]2c3cc(NC(=O)c4ccc5c(c4)OCO5)ccc3O[C@H]2[C@H](CO)O1)NCC1CC1	-1	-8	7.1
CN(C)CCCNC(=O)C[C@@H]1CC[C@H](NS(=O)(=O)c2ccccc2)[C@@H](CO)O1	0	2	-2.1
O=C(N[C@H]1CC[C@@H](CC(=O)N2CCN(c3ccccc3)CC2)O[C@H]1CO)c1ccncc1	11	3	7.1
C[C@@H]1CN([C@H](C)CO)C(=O)CCCn2nncc2CO[C@H]1CN(C)Cc1ccc2c(c1)OCCN2C	3	6	-3.5
Cc1noc(C)c1S(=O)(=O)N(C)C[C@@H]1OCc2cnnn2CCCC(=O)N([C@H](C)CO)C[C@@H]1C	5	6	-0.6
COc1ccc2c3c(n(C)c2c1)[C@H](CO)N(C(=O)Nc1c(C)noc1C)CC31CN(CC2CC2)C1	-1	-5	3.1
Cn1cnc(CCNC(=O)C[C@H]2CC[C@@H]3[C@H](COC[C@H](O)CN3C(=O)C3CCCC3)O2)c1	10	5	5.0
O=C(C[C@H]1C[C@H]2c3cc(NC(=O)C4CCOCC4)ccc3O[C@H]2[C@@H](CO)O1)NCc1cc(F)ccc1F	7	3	3.9
C[C@H]1CCc2cnnn2COCCNC1=O	7	8	-1.2
COCC(=O)Nc1ccc2c(c1)[C@@H]1C[C@@H](CC(=O)NCc3ccc4c(c3)OCO4)O[C@@H](CO)[C@@H]1O2	-2	-5	2.7
More compounds follow:
SMILES	DUX4 txn inh	DUX4 txn inh difference	DUX4 txn inh control
O=C(C[C@H]1CC[C@@H]2[C@H](COC[C@@H](O)CN2C(=O)c2ccccc2F)O1)NCc1ccc(-c2ccccc2)cc1	-3	4	-6.5
CN1C(=O)c2cc(NC(=O)Cc3cccs3)ccc2OC[C@@H]2O[C@@H](CC(=O)N[C@H]3CCN(Cc4ccccc4)C3)CC[C@@H]21	-4	-3	-1.0
CN(C)C(=O)c1cccc(-c2ccc3c(c2)[C@@H]2[C@@H](CCN2C(=O)Cc2ccccn2)[C@@H](CO)N3C)c1	0	3	-3.1
CCCNC(=O)C[C@@H]1CC[C@@H]2[C@H](COC[C@H](O)CN2Cc2cccc(F)c2)O1	9	5	4.4
CCCC(=O)Nc1ccc2c(c1)C(=O)N(C)[C@@H]1CC[C@H](CC(=O)NC3CCCC3)O[C@@H]1CO2	-2	-4	2.2
O=C(Cc1ccncc1)NCC[C@H]1CC[C@@H](NC(=O)C2CCOCC2)[C@H](CO)O1	3	5	-2.2
CO[C@H]1CN(C)C(=O)c2cc(NC(=O)C3CCCCC3)ccc2OC[C@H](C)N(C(=O)c2ccccc2)C[C@@H]1C	4	1	2.8
COc1ccc2c3c([nH]c2c1)[C@H](CO)N(S(=O)(=O)c1cn(C)cn1)CC31CCN(Cc2ccccc2F)CC1	?	.	.
CCCNC(=O)[C@H]1[C@H](CO)[C@H]2Cn3c(ccc(-c4ccc(F)cc4)c3=O)[C@@H]1N2C	-3	-4	0.6
Cc1ccc(S(=O)(=O)N2C[C@@H](O)COC[C@@H]3O[C@@H](CC(=O)NCCN4CCCCC4)CC[C@H]32)cc1	18	13	4.4
COCCNC(=O)[C@@H]1[C@@H](CO)[C@@H]2Cn3c(ccc(-c4ccc(F)cc4)c3=O)[C@H]1N2C	7	5	1.8
C[C@@H]1CN([C@H](C)CO)C(=O)CCCn2nncc2CO[C@@H]1CN(C)C(=O)Nc1ccccc1	-3	-4	0.9
CC=Cc1ccc2n(c1=O)C[C@@H]1[C@@H](CO)[C@H](C(=O)NCCC)[C@H]2N1C(=O)C1CCCC1 (mixture of isomers)	0	3	-2.6
N#Cc1ccc(-c2ccc3c(c2)[C@H]2[C@H](CCN2S(=O)(=O)c2ccccc2F)[C@H](CO)N3)cc1	?	.	.
O=C(c1cccc(F)c1)N1CC[C@@H]2[C@H](CO)Nc3ccc(-c4cccc(F)c4)cc3[C@@H]21	?	.	.
COc1ccc2c3c([nH]c2c1)[C@@H](CO)N(C)CC31CCN(C(=O)CN(C)C)CC1	6	7	-0.9
COc1ccc(-c2ccc3c(c2)[C@H]2[C@H](CCN2C(=O)c2cccc(F)c2)[C@@H](CO)N3)cc1	?	.	.
O=C(c1ccccc1)N1CC2(C1)[C@H](c1ccccc1)[C@H](CO)N2CC1CC1	-10	-2	-8.0
CNC(=O)C[C@@H]1CC[C@H]2[C@@H](COC[C@H](O)CN2Cc2ccncc2)O1	6	-5	11
C[C@@H]1CN([C@@H](C)CO)C(=O)c2c(c3ccccc3n2C)-c2ccccc2CO[C@H]1CN(C)Cc1cccc(C(=O)O)c1	0	8	-8.3
CCC(=O)N1C[C@@H]2[C@H](c3ccccc31)[C@H](CO)N2C(=O)CC1CC1	1	-1	2.4
CO[C@@H]1CN(C)C(=O)c2cc(NC(=O)c3cnccn3)ccc2OC[C@@H](C)NC[C@H]1C	9	8	1.1
O=C(C[C@@H]1CC[C@@H]2[C@H](COC[C@H](O)CN2C(=O)c2ccc(F)cc2)O1)NCCCN1CCOCC1	10	1	8.8
O=C(C[C@@H]1CC[C@@H]2[C@H](COC[C@H](O)CN2C(=O)Nc2ccc(F)cc2)O1)NCCc1ccccc1	6	3	2.6
